High-throughput results from PubChem.
D2 ag – activates the human D2 dopamine receptor; P14416; DiscoveRx PathHunter D2 beta-arrestin, luminescence, 90 min; 100% = 57 uM dopamine signal; activation, % (concentration not given with the values); 360,000 compounds, 0.084% hits; in the data active = activation above about 40%; inconclusive = about 15% to 40%; inactive = below about 15%; also: the text of the record calls up to 30% inactive
Target sequence (P14416 whole entry, looked up): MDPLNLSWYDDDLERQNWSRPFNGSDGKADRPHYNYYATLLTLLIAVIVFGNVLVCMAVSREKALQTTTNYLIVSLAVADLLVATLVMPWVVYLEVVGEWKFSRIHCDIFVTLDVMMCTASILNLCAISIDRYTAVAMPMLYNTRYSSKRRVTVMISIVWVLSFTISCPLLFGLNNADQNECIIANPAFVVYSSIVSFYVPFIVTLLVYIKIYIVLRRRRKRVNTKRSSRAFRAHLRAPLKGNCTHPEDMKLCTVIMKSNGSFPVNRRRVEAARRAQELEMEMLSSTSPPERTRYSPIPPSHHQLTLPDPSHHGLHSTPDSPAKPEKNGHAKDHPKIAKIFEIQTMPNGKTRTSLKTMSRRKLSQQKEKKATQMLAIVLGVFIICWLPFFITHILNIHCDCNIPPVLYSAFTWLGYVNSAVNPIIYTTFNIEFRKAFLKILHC
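DiscoveRx PathHunter D2 beta-arrestin cells (2,100/well) attached overnight, then compound-stimulated 90 min at 37 C in HBSS/10 mM HEPES/0.1% Tween-20 buffer; beta-galactosidase complementation read by luminescence after 1 h at ambient temperature. Dopamine 57 uM final (EC100) as control.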
Six1-Eya2 inh – inhibitors of human Six1/Eya2 interaction; Q15475+O00167; AlphaScreen GST-Six1/His-Eya2 binding, biochemical; active compounds read low; control for the full effect not named in the record; activity change, % (concentration not given with the values); 360,000 compounds, 0.56% hits; in the data active = activity change below about -65%; inconclusive = about -30% to -65%; inactive = above about -30%; also: % is scaled to controls: 0 for no effect and ±100 for the full control effect
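AlphaScreen luminescence read after one hour at 37 °C in darkness. Pin-transferred compounds met GST-Six1 and His-Eya2 protein (5X stock 250 nM/500 nM) plus glutathione donor and Ni-chelate acceptor beads (5X, 50 ug/mL).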
D2 potentiator – human D2 receptor positive allosteric modulation | DiscoveRx D2 beta-arrestin cells, luminescence, 90 min; 100% = 57 uM dopamine signal | potentiation, % (concentration not given with the values) | 360,000 compounds, 0.23% hits | AID 624464; active = potentiation of 50% or more; inconclusive = 30% to 50%; inactive = 30% or less;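 also: tested on top of an EC20 dose of dopamine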
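PathHunter beta-arrestin assay in DiscoveRx D2 cells. Compounds were added with an EC20 of dopamine (50 nM final) for 90 min at 37 deg C. Luminescence was read 1 h after detection reagent, with 57 uM dopamine as the EC100 control.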
TRPML1 ag – agonists of human TRPML1 channel. AID 624414. 410,000 compounds, 0.12% hits. Q9GZU1. activation, % (concentration not given with the values). TRPML1-expressing cells, Ca2+ dye fluorescence, FDSS; host cell line not named in the record; reference of the full effect not given here; in the data active = activation above about 50%; inconclusive = about 30% to 50%; inactive = below about 30%; also: 0% is about no effect; the text of the record puts the active cut at 80%
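Agonist activity was taken from a 110 s kinetic Ca2+ dye read on the FDSS after pinning compounds onto TRPML1-DL cells. The cells were seeded at 1,500/well with Tet inducer, incubated about 16 h, then dye-loaded at room temperature.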
CtBP-E1A inh – CtBP/E1A binding inhibition | AlphaScreen GST-E1A/His-CtBP binding, 1536-well; active compounds read low; control for the full effect not named in the record | 340,000 compounds, 0.49% hits | activity change, % (concentration not given with the values) | AID 651724; in the data active means activity change below about -65%; inconclusive means about -30% to -65%; inactive means above about -30%; also: % is scaled to controls: 0 for no effect and ±100 for the full control effect
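AlphaScreen with 125 nM GST-E1A and 125 nM His-CtBP (5X stocks) in Tris pH 8.0, 300 mM NaCl, BSA, Tween 20, TCEP. Compounds preincubated 2 h at 37 deg C, then glutathione donor/nickel acceptor beads added for 1 h at 37 deg C in dark.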
PINK1 modulator – PINK1 expression modulation; 410,000 compounds, 0.2% hits; Potency, µM (highest dose often 76.6 µM), for the others: at the top dose activation (PINK1 increase), usual class: activators; PINK1 immunofluorescence, high-content cytometry, 24 h; active = well fitted activation curve with a large enough effect; inconclusive = small, poorly fitted or top-dose-only effect; inactive = flat fitted curve, though single readings scatter; cell line not stated here;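 also: potency is read from the fitted curve at half-maximal effect; % of control where 0% means no effect; nearly all actives have a fitted effect of over 65% in size; a mitochondrial uncoupler was the plate control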
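PINK1 protein, normally rapidly degraded, was detected by immunofluorescence after 24 hour compound treatment of a stable cell line. Titration data (5 concentrations) came from laser-scanning cytometry, with CCCP-treated wells as controls.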
An asterisk follows results filed as active; . = no result given; [ ] = dose if it differs, or a comment.

SMILES | D2 ag | Six1-Eya2 inh | D2 potentiator | TRPML1 ag | CtBP-E1A inh | PINK1 modulator
COc1ccc(OC)c(C2C(C(=O)c3sc(C)nc3C)=C(O)C(=O)N2CCN2CCOCC2)c1 (stereo unspecified) | -1.8 | -1 | 3 | -0.5 | 8 | -1.1%
CC1CCCCC1NC(=O)c1c(O)nc2ccccn2c1=O (stereo unspecified) | -2.5 | 6 | -1 | -0.4 | -4 | 4.2%
Cc1cc(C)c2nc(N3CCC(C(=O)N4CCN(c5ncccn5)CC4)CC3)sc2c1 | -0.9 | 17 | -6 | 0.9 | 61 | 8.6%[38.3 µM]
COc1ccc(NC(=O)Nc2cccc3cccnc23)cc1 | -2.2 | -6 | -10 | 0.6 | -21 | 1.5%[38.3 µM]
CC(C)c1ccc(NC(=O)c2cc(-c3cc(F)ccc3OCC3CCCO3)n[nH]2)cc1 (stereo unspecified) | 3.7 | -7 | 4 | -0.2 | 2 | -0.4%
Cc1nnc(SCc2c(Cl)cccc2Cl)s1 | -3.6 | 9 | 5 | 3.1 | 16 | 3.2%
COc1ccccc1OCc1nnc(SCC(N)=O)n1-c1ccccc1 | -3.3 | 3 | 20 | . | . | 0.9%
Cc1ccc2oc(-c3ccccc3C(=O)O)cc(=O)c2c1 | -3.3 | 2 | -3 | -0.3 | 13 | -1.4%
COc1cccc(NC(=O)CN(C)C(=O)COc2ccccc2Cc2ccccc2)c1 | -4.2 | -1 | -14 | 0.2 | 17 | 4.1%
Cc1nn(Cc2noc(C(=O)NC3CCC(C)CC3)n2)c(C)c1Br (stereo unspecified) | 4.1 | 8 | -7 | 1.6 | . | 3.6%
COc1ccc(Cl)cc1-c1nc(-c2ccncc2)no1 | -1.0 | 1 | -7 | -0.3 | 6 | 5.0%
CC(C)[C@H](NC(=O)[C@@H]1CSC2c3ccccc3C(=O)N21)C(=O)N1CCCCC1 (stereo partly specified) | -0.2 | -2 | 2 | -1.7 | 2 | -0.2%
CCC1=C(OC(=O)N(CC)CC)N2C(=O)OC(=NCCOC)[C@]2(Cc2ccccc2)[C@H]2C1=CC[C@H]1C(=O)N(CC(=O)OC)C(=O)[C@H]12 | 0.8 | 6 | -2 | -0.4 | 1 | 0.2%
CCN(CC)S(=O)(=O)c1ccc(N2CCOCC2)c(NC(=O)CN2C(=O)NC(C)(c3ccccc3)C2=O)c1 (stereo unspecified) | 0.2 | 1 | -5 | -0.8 | 1 | 8.2%
CCNC(=O)NC(=O)CSc1ccc(NC(C)=O)cc1 | -2.6 | 3 | -2 | -1.0 | 5 | -2.3%
Cc1cc(C)nc(Nc2n[nH]c(-c3ccc(N)cc3)n2)n1 | -0.3 | 0 | -5 | -0.9 | -1 | 1.5%
Cc1ccccc1OCC(=O)OCC(=O)NCC1CCCCC1 | -0.4 | 2 | -1 | 0.5 | 4 | 0.9%
CC(C)CNC(=O)COC(=O)c1cncc(Br)c1 | 0.6 | -9 | 9 | 0.7 | -12 | 14%[38.3 µM]
O=C(c1ccc(Cl)cc1)N1CCn2c1nc1ccccc12 | -1.4 | 0 | -5 | -0.8 | -7 | 1.1%
CCOc1cc2[nH]c(=O)n(CCC(=O)NCCc3ccc(OC)c(OC)c3)c(=O)c2cc1OCC | -1.0 | -1 | 7 | -0.7 | 0 | 0.0%

An excerpt of these results, with tabs:
structure	D2 ag	Six1-Eya2 inh	D2 potentiator	TRPML1 ag	CtBP-E1A inh	PINK1 modulator
COc1ccccc1OCc1nnc(SCC(N)=O)n1-c1ccccc1	-3.3	3	20	.	.	0.9%
Cc1ccc2oc(-c3ccccc3C(=O)O)cc(=O)c2c1	-3.3	2	-3	-0.3	13	-1.4%
COc1cccc(NC(=O)CN(C)C(=O)COc2ccccc2Cc2ccccc2)c1	-4.2	-1	-14	0.2	17	4.1%
Cc1nn(Cc2noc(C(=O)NC3CCC(C)CC3)n2)c(C)c1Br (stereo unspecified)	4.1	8	-7	1.6	.	3.6%
COc1ccc(Cl)cc1-c1nc(-c2ccncc2)no1	-1.0	1	-7	-0.3	6	5.0%
CC(C)[C@H](NC(=O)[C@@H]1CSC2c3ccccc3C(=O)N21)C(=O)N1CCCCC1 (stereo partly specified)	-0.2	-2	2	-1.7	2	-0.2%
CCC1=C(OC(=O)N(CC)CC)N2C(=O)OC(=NCCOC)[C@]2(Cc2ccccc2)[C@H]2C1=CC[C@H]1C(=O)N(CC(=O)OC)C(=O)[C@H]12	0.8	6	-2	-0.4	1	0.2%
CCN(CC)S(=O)(=O)c1ccc(N2CCOCC2)c(NC(=O)CN2C(=O)NC(C)(c3ccccc3)C2=O)c1 (stereo unspecified)	0.2	1	-5	-0.8	1	8.2%
CCNC(=O)NC(=O)CSc1ccc(NC(C)=O)cc1	-2.6	3	-2	-1.0	5	-2.3%
Cc1cc(C)nc(Nc2n[nH]c(-c3ccc(N)cc3)n2)n1	-0.3	0	-5	-0.9	-1	1.5%
Cc1ccccc1OCC(=O)OCC(=O)NCC1CCCCC1	-0.4	2	-1	0.5	4	0.9%
CC(C)CNC(=O)COC(=O)c1cncc(Br)c1	0.6	-9	9	0.7	-12	14%[38.3 µM]

(listing goes on)
SMILES | D2 ag | Six1-Eya2 inh | D2 potentiator | TRPML1 ag | CtBP-E1A inh | PINK1 modulator
O=C(CCCn1c(=S)[nH]c2cc3c(cc2c1=O)OCO3)NCCc1ccc(Cl)cc1 | -3.2 | 8 | -6 | -0.3 | -20 | 7.6%
COc1cc(C(=O)NC2CCCc3ccccc32)ccc1OCC(=O)Nc1ccc(F)cc1 (stereo unspecified) | -2.7 | -3 | -2 | -0.2 | -2 | 3.8%
CC(C)NC(=O)C(=O)Nc1cc2c3c(c1)CCC(=O)N3CCC2 | 0.0 | -2 | -7 | -0.2 | . | 1.3%
O=C(NCCN1CCNC1=O)c1ccc2sc([C@@H]3O[C@H](CO)[C@H](O)[C@H](O)[C@H]3O)nc2c1 | -6.7 | 6 | -11 | 1.6 | 9 | 1.2%
N#Cc1ccc(COC(=O)C2CCC(=O)N2)cc1 (stereo unspecified) | -4.3 | -5 | 16 | 0.3 | -1 | -2.6%
COCCNC(=O)c1ccc(N2CCC3(CC2)OCCO3)c([N+](=O)[O-])c1 | 1.8 | 3 | 18 | 0.5 | 4 | -2.8%
COc1ccc(-n2c(SCc3ccccn3)nc3c(c2=O)SCC3)cc1OC | 3.6 | -25 | 6 | 2.5 | -6 | 0.5%
NC(=O)c1ccsc1NC(=O)COC(=O)COc1ccccc1[N+](=O)[O-] | -0.8 | 3 | 0 | 0.7 | 5 | 0.2%
O=C(COC(=O)c1cnccn1)NCc1ccc(Cl)cc1 | 1.0 | 7 | -4 | -0.1 | 0 | -1.4%
O=C(COC(=O)c1nc(Cl)ccc1Cl)Nc1ncc(Cl)cc1Cl | -3.5 | 6 | -20 | -0.3 | 6 | 4.5%
Cc1ccc(-c2nc(S(=O)(=O)c3ccc(C)cc3)c(N(C)C)o2)cc1 | -0.1 | -9 | -15 | -0.6 | -2 | 4.3%
CN(C)C(CNC(=O)CNC(=O)Cc1cccc2ccccc12)c1ccccc1 (stereo unspecified) | -1.8 | -3 | -10 | 0.3 | -2 | -2.0%
COC(=O)[C@]12CCCCC=C1N(Cc1ccco1)C(=O)[C@H](CC(=O)NCCc1ccccc1OC)C2 | . | 3 | . | -0.5 | -16 | -0.3%
Cc1cc(NC(=O)c2c(F)c(F)c(F)c(F)c2F)no1 | -3.3 | 3 | 0 | 0.6 | 8 | -2.1%[38.3 µM]
CC(C)N(Cc1ccccc1)C(=O)COC(=O)c1c(F)cccc1F | -5.5 | 6 | 9 | -0.4 | 3 | -0.4%
Cc1cc(C(=O)Nc2ccc3c(c2)OCO3)no1 | -5.7 | -7 | -7 | -0.3 | -20 | 0.1%
COCCCN1CC23C=CC(O2)C(C(=O)OC)C3C1=O (stereo unspecified) | -1.0 | 10 | -11 | -0.1 | 9 | 0.8%
